Tg IFNy HTS = T. gondii growth inhibition under IFN-gamma; Toxoplasma gondii growth in IFN-gamma-treated host cells; hits give low values; reference of the scale not given here; activity change, negative = inhibition, %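 (about 20 µM by stock and volumes)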; hit rate 3.8% among 69,000;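 active = below -70%; inconclusive = fit judged invalid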;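 also: host cells are HeLa cells infected with Toxoplasma gondii; parasite growth read as luciferase light; one replicate is shown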
Numbers without * were called inactive; ? = inconclusive; & = joins results of further samples. This is a subset; rates above refer to the full screens.

SMILES | Tg IFNy HTS
O=C(c1ccc(N2CCC(NCC3C4CC5CC(C4)CC3C5)CC2)cc1)N1CCCC(CO)C1 (stereo unspecified) | 3
Cn1cc(NC(=O)CN2CCCC2c2ccc(F)cc2)cn1 (stereo unspecified) | 0
O=C(C1CCC1)N1C[C@@H]2N[C@H](C1)C2c1ccc(-c2cncnc2)cc1 (stereo partly specified) | 35
C[C@@H]1CN([C@H](C)CO)C(=O)c2cc(NS(C)(=O)=O)ccc2O[C@H]1CN(C)C | -53
Cc1ccc(NC(=O)Cn2c(=O)cc(C(=O)N3CCCCC3)c3ccccc32)c(C)c1 | 7
O=c1[nH]c(=O)c2ccccc2o1 | -29&21
CCc1nc(OCC(=O)Nc2cccc(C)c2C)c2ccccc2n1 | -5
O=C(c1cccc(C(F)(F)F)c1)N1CCN(S(=O)(=O)c2cc3c4c(c2)CCN4C(=O)CC3)CC1 | 25
CCc1ccc(N2CCC(C(=O)NCCc3c[nH]c4ccc(Cl)cc34)C2=O)cc1 (stereo unspecified) | 30
O=C(N1CCCC1c1nnn2cc(-c3cccc(F)c3)ccc12)C(F)(F)F (stereo unspecified) | -14
CCc1nc(C)ccc1OCC(=O)N1C[C@H](N)C[C@H]1C(=O)NC | 1
COc1ccc2c(c1)NC1(CCN(C(=O)Nc3ccc(OC)c(OC)c3)CC1)c1cccn1-2 | 109
Cc1ccccc1NC(=O)N1CC[C@H]2CN(CC(C)C)S(=O)(=O)[C@@H]2CC1 | -1
Cc1nccn1-c1ccc(-c2cccc3cccnc23)nn1 | -3
Cc1noc(C)c1NC(=O)N[C@@H]1C=C[C@@H](CC(=O)Nc2ccc(-c3ccccc3)cc2)O[C@H]1CO | 17
COc1ccc(C[C@@H]2CCn3nncc3COC[C@@H](CC(C)C)NC2=O)cc1 | -22
COc1cccc(CN2CCN(C(=O)c3cccc4ncccc34)[C@@H](C)C2)c1 | 16
O=C1CCc2cc(S(=O)(=O)Nc3ccc(Br)cc3)cc3c2N1CC3 | 243
Cc1ccc(C2(O)CCN(C(=O)c3cnn(-c4ccccn4)c3C)CC2)nc1 | -37
CN(CCC1CCOCC1)C(=O)CCSc1ccc2c(c1)OCCO2 | -6
CS(=O)(=O)N1C[C@H](NC(=O)C2CC2)C2OCCCC21 (stereo partly specified) | 0
CN(Cc1ncc[nH]1)[C@@H]1CS(=O)(=O)C[C@H]1O | -6
COc1cc2ccc(=O)oc2cc1O | 15
Cc1ccccc1-c1ncc(CN(C)Cc2ncc[nH]2)s1 | 232
C=CCOCC1c2nnn(C)c2CCN1Cc1ccc2c(c1)OCO2 (stereo unspecified) | 2
O=C(NCCc1c[nH]c2ccccc12)c1cc(-c2cccnc2)nc2ccccc12 | 1
CN(C)c1nc(N2CCCC2)nc2c1CCN(C(=O)c1ccc[nH]1)CC2 | -3
Cc1cc(C)cc(N2CCN(C(=O)CC3NC(=O)NC3=O)CC2=O)c1 (stereo unspecified) | 21
C[C@@H]1C[C@H](Nc2ccccc2)c2ccccc2N1C(=O)c1cccnc1 | 38
COc1cccc(-c2nc(Cn3c(=O)c4c(C)cc(C)nc4n(-c4ccccc4)c3=O)c(C)o2)c1OC | 0
O=C(NC[C@H]1[C@@H](c2ccccc2)[C@H](CO)N1C(=O)Cc1ccncc1)C1CCC1 | -45
CC(=O)Nc1cc(O)cc(O)c1 | -3
Cc1cc(C2CCCN2Cc2cc3cc4c(cc3[nH]c2=O)OCO4)on1 (stereo unspecified) | -6
COc1cc2[nH]c3c(=O)n(CC(=O)NCc4ccncc4)cnc3c2cc1OC | 30
CC(c1cc2ccccc2[nH]1)N(C)C(=O)c1cc2n(n1)CCN(C)C2 (stereo unspecified) | 6
NCCSC12CC3CC(CC(C3)C1)C2 | 15
COCCC(=O)N1CCC2(CCOCC2COCC2CC2)CC1 (stereo unspecified) | 5
O=C(Cn1c(=O)cc(-c2nc(C3CC3)no2)c2ccccc21)Nc1ccc2c(c1)OCCO2 | -19
O=C(C[C@H]1CC[C@H]2NC[C@H](O)COC[C@@H]2O1)Nc1ccc(-c2ccccc2)cc1 | 7
C1=C(Cc2nc(-c3ccccc3)nn2-c2ccccn2)CCNC1 | 5
CN1CCCn2nc(C(=O)NC3CCN(Cc4cccc(O)c4)CC3)cc2C1 | 1
COCc1nc(NCC2(N3CCOCC3)CCCCC2)c2cnn(C)c2n1 | -51
O=C(C1CCOCC1)N1CCO[C@@H]2[C@H]1CC[C@H]2Oc1ccccn1 | -1
C=CCOC1C2CCC1N(S(=O)(=O)c1ccccc1)CCO2 (stereo unspecified) | 3
C=CCOCC1c2nnn(C)c2CCN1Cc1cnn(C)c1 (stereo unspecified) | 35
CO[C@H]1CC[C@@H]2CCOc3c(C#N)cccc3C(=O)N(C)C[C@H](c3ccccc3)CC(=O)N(C)C[C@H]1O2 | -48
CC1COC2(CCN(c3ccc(C#N)cc3)CC2)C1 (stereo unspecified) | -90*
COCCNC(=O)C[C@@H]1CC[C@H]2[C@@H](COc3ccc(NS(=O)(=O)c4ccc(Cl)cc4)cc3C(=O)N2C)O1 | -10
CCn1c(=O)c(-c2nc(-c3ccccc3Cl)no2)c(O)c2cc(F)ccc21 | 109
CN(CCNc1nc(-c2ccc(Cl)cc2)nc2ccccc12)C1CCCCC1 | -77

Already shown: entries from further up.
SMILES | Tg IFNy HTS
CCn1c(=O)c(-c2nc(-c3ccccc3Cl)no2)c(O)c2cc(F)ccc21 | 109
CN(CCNc1nc(-c2ccc(Cl)cc2)nc2ccccc12)C1CCCCC1 | -77

(continued)
SMILES | Tg IFNy HTS
Cc1ccc(Sc2ccc(CN3CCOC4(CNCCOC4)C3)o2)cc1 (stereo unspecified) | -6
Cc1nc([C@@H]2C[C@H]3CCN(Cc4ccc(C)s4)C[C@@H]3O2)no1 | 2
CN(Cc1cc2n(n1)CCNC2)Cc1nc2ccccc2c(=O)[nH]1 | 0
COC(=O)c1ccc2c(c1)nc(N1CCOC(c3ccc(Cl)cc3)C1)n2C (stereo unspecified) | -17
Cc1ccc(C)c(NC(=O)Cn2ncc3c(N4CCN(c5ccccn5)CC4)ncnc32)c1 | -3
Cc1ccc(CCNC(=O)c2cc(Cn3ccc4ccccc43)[nH]n2)cc1C | -45
Cc1cc(NC(=O)CC2CCCCC2)n(-c2ncnc3c2cnn3-c2ccc(F)cc2)n1 | -2
CN1C[C@@H]2CC[C@H](CC1=O)N2C(=O)Cn1nc2ccccc2n1 | 0
Cc1noc(C)c1NC(=O)N(C)C[C@@H]1OCCCC[C@H](C)Oc2ccc(NC(=O)Nc3ccc(C(F)(F)F)cc3)cc2C(=O)N([C@@H](C)CO)C[C@H]1C | ?
COc1ccccc1NC(=O)N[C@H]1CC[C@@H](CCNS(=O)(=O)c2ccc(Cl)cc2)O[C@H]1CO | -42
CC(=O)NCCC1CN(C2CCN(c3ccc(C)cc3)CC2)CCO1 (stereo unspecified) | -6
O=C1NCCN1c1ncc([N+](=O)[O-])s1 | 14&6
CN(C)C(=O)c1cccc(-c2ccccc2[C@@H]2[C@@H](CO)N(C(=O)C3CCCCC3)[C@H]2C#N)c1 | -10
CNC[C@H]1Oc2c(NC(=O)Nc3cccc4ccccc34)cccc2C(=O)N([C@H](C)CO)C[C@@H]1C | -48
CC(C)C(=O)N1CCC[C@]2(C(=O)NCC3CC3)CN(Cc3cnn(C)c3)C[C@H]2C1 | -26
COC(=O)[C@H]1C[C@@H](O)CCN1S(=O)(=O)c1cc(Cl)ccc1OC | -33
Cc1cccc(Cn2nc(NC(=O)c3ccncc3)cc2C)c1 | 2
CN(CCCn1cccn1)C(=O)c1cc(Cn2ccc3ccccc32)[nH]n1 | -4
CCC(=O)N1CC2(CCN(C(=O)Nc3c(C)noc3C)CC2)c2c([nH]c3cc(OC)ccc23)[C@@H]1CO | 342
O=C(Nc1cccc(C(=O)N2CCOCC2)c1)c1cc2c([nH]c1=O)CCCCC2 | -53
COc1cccc(-c2nc(C)c(-c3ccc(SCc4ccccn4)nn3)s2)c1 | 129
NC(=O)C1CCCN(CCCn2cnc(-c3ccccc3)c2-c2ccsc2)C1 (stereo unspecified) | 1
COc1ccc2c(c1)NC1(CCN(S(=O)(=O)c3ccc(CC(C)C)cc3)CC1)c1cccn1-2 | 9
O=C(OCCSCCS(=O)(=O)c1ccc(Cl)cc1)c1ccccc1Cl | -13
CC(=O)N1CCCC2(CN(Cc3ccco3)CCO2)C1 (stereo unspecified) | 19
CCC(NCC#N)c1ccc(Cl)c(Cl)c1 (stereo unspecified) | 27
COc1ccc(-c2c(N)n[nH]c2C)cc1OC | -14
C[C@H](CO)N1C[C@H](C)[C@@H](CN(C)S(=O)(=O)c2ccc(Cl)cc2)Oc2ccc(NS(=O)(=O)c3cccs3)cc2C1=O | 8
Cc1nc(CCNC(=O)[C@H]2CCCN2S(=O)(=O)c2ccc(Cl)s2)cs1 | 5
CC(=O)c1sc(C2CCN(C(=O)CCCC(=O)N3CCc4ccccc43)CC2)nc1C | -7

Some of these compounds in order of molar mass, ascending.
SMILES | Tg IFNy HTS
COc1ccc(-c2c(N)n[nH]c2C)cc1OC | -14
CCC(NCC#N)c1ccc(Cl)c(Cl)c1 (stereo unspecified) | 27
CC(=O)N1CCCC2(CN(Cc3ccco3)CCO2)C1 (stereo unspecified) | 19
CN(CCCn1cccn1)C(=O)c1cc(Cn2ccc3ccccc32)[nH]n1 | -4
COC(=O)[C@H]1C[C@@H](O)CCN1S(=O)(=O)c1cc(Cl)ccc1OC | -33
O=C(Nc1cccc(C(=O)N2CCOCC2)c1)c1cc2c([nH]c1=O)CCCCC2 | -53
CC(C)C(=O)N1CCC[C@]2(C(=O)NCC3CC3)CN(Cc3cnn(C)c3)C[C@H]2C1 | -26
COc1cccc(-c2nc(C)c(-c3ccc(SCc4ccccn4)nn3)s2)c1 | 129
O=C(OCCSCCS(=O)(=O)c1ccc(Cl)cc1)c1ccccc1Cl | -13
Cc1nc(CCNC(=O)[C@H]2CCCN2S(=O)(=O)c2ccc(Cl)s2)cs1 | 5
COc1ccc2c(c1)NC1(CCN(S(=O)(=O)c3ccc(CC(C)C)cc3)CC1)c1cccn1-2 | 9
CNC[C@H]1Oc2c(NC(=O)Nc3cccc4ccccc34)cccc2C(=O)N([C@H](C)CO)C[C@@H]1C | -48
CCC(=O)N1CC2(CCN(C(=O)Nc3c(C)noc3C)CC2)c2c([nH]c3cc(OC)ccc23)[C@@H]1CO | 342
C[C@H](CO)N1C[C@H](C)[C@@H](CN(C)S(=O)(=O)c2ccc(Cl)cc2)Oc2ccc(NS(=O)(=O)c3cccs3)cc2C1=O | 8

Additional compounds:
SMILES | Tg IFNy HTS
Cc1cc(C)n(Cc2c(C(=O)Nc3ccc4nc(C(C)C)sc4c3)noc2C)n1 | -31
O=C(CC1COCCN1)N1CCN(c2nnc(C(F)(F)F)s2)CC1 (stereo unspecified) | 1
COc1ccc(Cl)cc1S(=O)(=O)Nc1ccc(-c2nc(-c3ccc(C)c(C)c3)co2)cc1 | -32
COc1ccc(S(=O)(=O)N2CC3CCCC(C2)C3(O)c2cccnc2F)cc1 (stereo unspecified) | 37
COc1ccc(OC)c(-c2noc(-c3c(O)c4ccccc4n(C)c3=O)n2)c1 | -39
FC(F)(F)c1ccccc1CCC1CCCN(Cc2cccnc2)C1 (stereo unspecified) | -3
CC(=O)N1CCCn2nc(C(=O)O)cc2C1 | 15
Cc1ccc2c(NC(=O)C(c3ccc(Cl)cc3)N3CCOCC3)n[nH]c2n1 (stereo unspecified) | -5
CNC(=O)c1ccc(CN2CC=C(C(C)N(C)C(C)=O)CC2)o1 (stereo unspecified) | 14
C[C@@H]1CN([C@@H](C)CO)C(=O)Cc2cc(NS(=O)(=O)c3cn(C)cn3)ccc2O[C@H]1CN(C)Cc1ccc2c(c1)OCO2 | 7
CCCc1nc2ccccc2n1C(C)C(=O)Nc1cc(C)nn1Cc1cccnc1 (stereo unspecified) | 10
CN=C1SC(CC(=O)O)C(=O)N1C (stereo unspecified) | 42
CN(CCC(O)c1ccccc1)c1ccc(-c2nccn2C)nn1 (stereo unspecified) | 181
O=C(NC1CC1)c1cc(N2CCCOC(CN3CCCC3)C2)ccn1 (stereo unspecified) | ?
CO[C@H]1CN(C(=O)N2CCCC2)[C@H]2CCCO[C@@H]12 | 136
CN(C)C1CCN(Cc2cccc(C#N)c2)C(C(=O)O)C1 (stereo unspecified) | -48
Cc1ccc(NC(=O)c2nc(Nc3ccccc3)c3ccccc3n2)cc1C | -36
C=C(C)COc1ccc(C(=O)N[C@H]2COC[C@@H]2N2CCOCC2)cc1 | 0
CC(C)CSc1ncc(CNCCc2nc3ccccc3n2C)cn1 | 119
COc1cccc(-c2nc(CSc3nc4c(=O)[nH]cnc4n3C)c(C)o2)c1OC | -5
Cc1ncc(CN2CC[C@@H]3OCCN(C(=O)c4ccncc4)[C@@H]3C2)[nH]1 | -64
O=C(O)[C@H]1C[C@@H](O)CCN1C(=O)CCc1cccnc1 | -26
Cc1cc(C)n2nc(CC(=O)N3CCCC3c3nc4cc(C)c(C)cc4[nH]3)nc2n1 (stereo unspecified) | 33
CC(C)Nc1ncnc2c1CCN(C(=O)NCc1cccc(F)c1)CC2 | -2
Cc1cc(C)n(Cc2nc(-c3ccc(NC(=O)c4ccc(F)c(F)c4)cc3)oc2C)n1 | 45
CSc1cccc(NC(=O)c2nnn(Cc3nc(-c4ccc(OC(C)C)cc4)oc3C)c2C)c1 | 2
CNC(=O)C[C@H]1CC[C@H]2[C@@H](COc3ccc(NS(=O)(=O)c4ccc(F)cc4)cc3C(=O)N2C)O1 | -9
Cc1ccc(NC(=O)Cn2ncc3c(N4CCCCCC4)ncnc32)c(C)c1 | 6
COC(=O)c1cc2n(n1)CCN(C(=O)CN(C)Cc1ccncc1)C2 | 5
CCSc1nc(Cl)c2ccccc2n1 | -4
CCc1nc(OCC(=O)Nc2ccccc2OC)c2ccccc2n1 | 5
COc1ccc(F)cc1CN1CCC(CNS(C)(=O)=O)C1 (stereo unspecified) | -2
C[C@H]1CN([C@@H](C)CO)C(=O)Cc2cc(N(C)C)ccc2O[C@@H]1CN(C)C(=O)NC1CCCCC1 | -14
Cc1nnsc1C(=O)N1CCc2c(nc(-c3ccncc3)nc2N(C)C)C1 | -9
Cn1c(=O)oc2cc(S(=O)(=O)N3CCc4ccccc4C3)ccc21 | 14
CCOc1ccc(NC(=O)N2CCN(Cc3nc(-c4ccccc4C)oc3C)CC2)cc1 | 0
